# KCNQ2 inh: KCNQ2 potassium channel inhibitors, primary screen, cell-based, CHO-K1, FluxOR thallium flux, B-score (AID 2156) | B-score at 10 µM | 310,000 tested, 1.1% active | O88943 | 20 min; hits give low values; only compounds with negative scores are shown here; some inactives read as strong as hits;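 active = fluorescence ratio B-score at most minus 3 library SDs, with starting brightness B-score within 2 library SDs, cut at about -5.5 in these data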
# Target sequence (O88943 whole entry, looked up): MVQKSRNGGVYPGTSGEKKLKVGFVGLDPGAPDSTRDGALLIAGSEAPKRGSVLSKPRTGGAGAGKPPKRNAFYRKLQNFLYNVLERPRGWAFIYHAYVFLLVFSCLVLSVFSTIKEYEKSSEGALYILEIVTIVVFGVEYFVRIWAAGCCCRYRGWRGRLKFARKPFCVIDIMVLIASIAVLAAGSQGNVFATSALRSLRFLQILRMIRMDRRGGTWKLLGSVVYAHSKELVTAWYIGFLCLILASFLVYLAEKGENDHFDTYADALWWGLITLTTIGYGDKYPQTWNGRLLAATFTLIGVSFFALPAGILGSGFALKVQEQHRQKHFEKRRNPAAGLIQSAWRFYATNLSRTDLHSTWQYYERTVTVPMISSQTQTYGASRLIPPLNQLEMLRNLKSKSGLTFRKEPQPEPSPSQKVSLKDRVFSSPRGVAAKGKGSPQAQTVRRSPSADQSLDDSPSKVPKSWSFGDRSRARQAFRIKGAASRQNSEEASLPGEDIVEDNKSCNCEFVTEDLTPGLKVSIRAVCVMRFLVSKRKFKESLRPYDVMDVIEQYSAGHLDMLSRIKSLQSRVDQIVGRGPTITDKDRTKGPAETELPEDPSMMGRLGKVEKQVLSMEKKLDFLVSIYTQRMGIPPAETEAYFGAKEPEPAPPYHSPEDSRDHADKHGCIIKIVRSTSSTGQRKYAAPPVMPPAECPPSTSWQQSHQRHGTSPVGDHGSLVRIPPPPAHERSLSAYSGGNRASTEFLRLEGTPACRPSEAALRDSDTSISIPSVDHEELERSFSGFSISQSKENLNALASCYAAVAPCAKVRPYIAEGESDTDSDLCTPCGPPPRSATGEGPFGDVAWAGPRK
# KCNQ2 inh baseline: also measured in KCNQ2 inh; calls as there; B-score; measured here: initial fluorescence intensity artifact check;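 brightness before thallium and not channel activity; 0 = typical well and far values either way flag optical interference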
# Active calls of the source: *; i = inactive.
No.	KCNQ2 inh	KCNQ2 inh baseline	SMILES
1	i	2.8	Cc1ccc(C2Nc3ccc4ccccc4c3C3=C2C(=O)CC(C)(C)C3)o1 (configuration not stated)
2	i	-3.5	O/N=C(/c1ccc(F)cc1)C1CC1c1c(F)cccc1Cl (configuration not stated)
3	i	-0.47	CC1=CC(=O)C=C(C)C1=NOC(=O)/C=C\c1ccccc1
4	i	-0.55	COc1ccc(C2NCCc3c2[nH]c2ccccc32)cc1COc1ccc(F)cc1 (configuration not stated)
5	i	-0.83	CCCCOc1ccc(Cl)cc1CSc1nnc(C)n1N
6	i	-0.76	COc1ccc(N(CC(=O)NCCC2=CCCCC2)S(=O)(=O)c2c(C)[nH]c(=O)[nH]c2=O)cc1
7	i	-0.58	CC1CCCC(C)N1C(=O)CCN1C(=O)C2C3C=CC(C3)C2C1=O (configuration not stated)
8	i	0.72	CCN(CC)S(=O)(=O)c1ccc(/C=C/C(=O)OCC#N)cc1
9	i	1	Cc1sc2nc(C3CC3)nc(SCC(=O)N3CCCc4ccccc43)c2c1C
10	i	-1.9	C#CCOC(=O)/C(=C/C=C/c1ccccc1)NC(=O)c1ccccc1
11	i	0.35	COc1cc(Br)c(Br)cc1N
12	i	-2.5	CC(C)(C)c1ccc(/C=C2\Oc3cc(O)ccc3C2=O)cc1
13	i	1.2	Cc1ccc(NC(=O)C(Cc2ccccc2)NC(=O)OCc2ccccc2)cc1C (configuration not stated)
14	i	-0.57	O=C(c1cnccn1)N1CCN(c2ccccc2F)CC1
15	i	-0.79	Cc1ccc(-c2nc(CS(=O)CC(=O)NC3CCC(C)CC3)c(C)o2)cc1 (configuration not stated)
16	i	-0.09	O=C(Nc1nnc(Cc2ccccc2F)s1)Nc1ccccc1F
17	i	-0.28	C=C(C)COc1ccc2oc(C)c(C(=O)OCCOC)c2c1
18	i	-0.31	O=C(Cc1ccccc1[N+](=O)[O-])OCc1cccc([N+](=O)[O-])c1
19	i	0.46	O=c1c2cc(F)ccc2[nH]c(=S)n1Cc1ccc(F)cc1
20	i	-2.4	Cc1ccc2nc(C)c3c(c2c1)N(c1ccccc1)CC3
21	i	0.75	CC(=O)Nc1ccc(CC#N)cc1
22	i	-0.22	COC(=O)c1sccc1NC(=O)CSc1nnnn1-c1ccccc1F
23	i	0.18	O=C(Nc1cccc2cccnc12)c1cccnc1
24	i	-0.05	O=S(=O)(Nc1ccc(O)c(Sc2nc3ccccc3s2)c1)c1ccc(Cl)cc1
25	i	-0.83	CC[N+](CC)(CC)C/C(N)=N/O

# From entry 10 up to 12, as listed above:
No.	KCNQ2 inh	KCNQ2 inh baseline	SMILES
10	i	-1.9	C#CCOC(=O)/C(=C/C=C/c1ccccc1)NC(=O)c1ccccc1
11	i	0.35	COc1cc(Br)c(Br)cc1N
12	i	-2.5	CC(C)(C)c1ccc(/C=C2\Oc3cc(O)ccc3C2=O)cc1

# Values in list order from the entries so far.
# KCNQ2 inh baseline for entries 7 to 11 → -0.58, 0.72, 1, -1.9, 0.35
# KCNQ2 inh for entries 7 to 11 → i, i, i, i, i

# (list continues)
No.	KCNQ2 inh	KCNQ2 inh baseline	SMILES
26	i	-1.4	COc1ccc(Cc2nc(-c3cccs3)no2)cc1OC
27	i	-0.33	Oc1c(Cl)cc(Cl)cc1C(C#Cc1ccccc1)N1CCOCC1 (configuration not stated)
28	i	0.73	Cc1ccc(-n2nc3c(c2NC(=O)c2cccs2)CS(=O)(=O)C3)cc1
29	i	-0.25	Cc1c(/C(O)=C2/C(=O)C(=O)N(CCN3CCOCC3)C2c2cccnc2)cnn1-c1ccccc1 (configuration not stated)
30	i	-0.75	Cc1csc(Sc2ccc([N+](=O)[O-])cc2C(=O)OCC(=O)NC(=O)NC(C)(C)C)n1
31	i	1.2	COC(=O)c1cn(-c2cccc(C)n2)cn1
32	i	0.63	CCOC(=O)C1=C2NC(=O)c3ccccc3N2C(=O)C1
33	i	1.3	O=C(NCCC1CCCCN1S(=O)(=O)c1cccs1)C(=O)Nc1cccc(F)c1 (configuration not stated)
34	i	1.5	CC(=O)c1cc(-c2ccccc2)n(CC(=O)Nc2cc(C)cc(C)c2)c1C
35	i	-0.04	Cc1nc(-c2ccc(Cl)cc2)sc1C1(C)CC(c2cccc(F)c2)=NO1 (configuration not stated)
36	i	-0.41	Cc1ccc(C)c(NS(=O)(=O)c2ccc3[nH]c(=O)oc3c2)c1
37	i	-0.25	O=C(NNC(=S)Nc1ccccc1)c1ccccc1[N+](=O)[O-]
38	i	3	COc1ccc(CCNC(=O)C2CCCN2C(=O)NC2CCCCC2)cc1OC (configuration not stated)
39	i	0.16	O=C(Nc1ccccc1)N1CCC(=S)Nc2ccccc21
40	i	0.43	O=C(CSc1nc2c(c(=O)[nH]1)CCCC2)Nc1ccc(Cl)cc1F
41	i	-1.4	COC(=O)C(=O)/C=C(\O)c1c(C)cc(C)cc1C
42	i	-2.1	Cc1ccc(-c2cnn3c(N4CCOCC4)cc(C)nc23)cc1
43	-6.3*	-0.64*	COc1ccc(C(CNC(=O)c2oc3ccc(F)cc3c2C)N2CCCCC2)cc1 (configuration not stated)
44	i	-1.7	CC12CCC(C(=O)NCc3ccccc3)(OC1=O)C2(C)C (configuration not stated)
45	i	-1.4	C#CCOCCOCCOCCNc1nc(N2CCOCC2)nc(N2CCN(C(=O)[C@H](CCCCN)n3cc([C@@H](N)CC(C)C)nn3)CC2)n1
46	i	-0.04	O=C(O)CCN=C1CCCc2ccccc2N1
47	i	-0.48	COc1ccc(C(=O)COC(=O)c2ccc(OC)c(OC)c2)cc1OC
48	i	0.02	CCN(CC)S(=O)(=O)c1ccc(S(=O)(=O)Nc2c(C)nn(C)c2C)cc1
49	i	-1.2	Cc1ccc(-c2nnc(N3CCC(C)CC3)c3ccccc23)cc1
50	i	-0.14	O=C(/C=C/Nc1ccc(F)cc1)c1cccs1
51	i	0.01	Cc1nnc(SCc2ccccc2Cl)n1CC1CCCO1 (configuration not stated)
52	i	1.4	O=C(c1cccc(F)c1)N1CCN(Cc2c[nH]c3ccccc23)CC1
53	i	0.85	CCC(c1nnc(SCC(=O)Nc2cccc(S(N)(=O)=O)c2)n1Cc1ccccc1)N(C)C (configuration not stated)
54	i	-2.3	Cc1nn(Cc2ccc(C(=O)Nc3ccccc3F)cc2)c(C)c1Cl
55	i	-1.7	Cc1ccc(CN(C)C(=O)c2cc(COc3cccc(C(F)(F)F)c3)on2)o1
56	i	0.3	O=C(Cn1c(=O)c2cccn2c2ccccc21)Nc1cc(F)ccc1F
57	i	-0.65	COc1ccc2c(C)cc3n[nH]c(=S)n3c2c1
58	i	-0.05	CCCc1nn2c(N)c(/C=C3\C=Nc4ccccc43)c(=O)nc2s1
59	i	-1.2	Oc1ccc(Br)cc1/C=N/n1c(COc2ccccc2)n[nH]c1=S
60	i	-1.7	O=C(C1CCN(S(=O)(=O)N2CCC3(CC2)OCCO3)CC1)N1CCN(Cc2ccccc2)CC1
61	i	0.31	CCCCOC(=O)c1cc(C)nc2ccc(Br)cc12
62	i	0.18	Cc1cc(C)cc(NC(=O)OCCN2CCN(Cc3ccccc3)CCC2=O)c1
63	i	3.1	CC1=C(C(=O)N2CCCCC2)C(c2cccs2)C2=C(CCCC2=O)N1 (configuration not stated)
64	i	-0.5	COC(CNC(=O)c1ccc2c(c1)nc(C)n2-c1cc(C)cc(C)c1)OC
65	i	-1.5	CCCNC(=O)c1ccc(N2CCC3(CC2)CC(c2ccccc2)=NO3)c(NC(=O)Cc2ccc(F)cc2)c1
66	i	0.14	CCOC(=O)c1c(Cc2cccc(Cl)c2)c[nH]c1C
67	i	-0.02	CCCCC(=O)Nc1ccc(C(=O)N2CCN(c3ccccc3OC)CC2)cc1
68	i	-1.9	Nc1c(C(=O)O)sc2nc(-c3ccccc3)cc(-c3ccc(Cl)cc3)c12
69	i	-0.21	CN(CC(=O)Nc1nc2ccccc2s1)S(=O)(=O)c1ccc(Br)cc1
70	i	0.52	CCc1ccc(-c2cc(N)n(-c3ccccc3)n2)cc1
71	i	-0.89	N#C/C(=C\Nc1ccc2c(c1)OCCO2)c1nc(-c2ccccc2)cs1
72	i	1.6	CCC(=O)Nc1ccc(Cl)c(NC(=O)c2cccc(OC)c2)c1
73	i	-0.19	COc1ccc2nc(C)cc(N3CC(C)OC(C)C3)c2c1 (configuration not stated)
74	i	-0.52	Cc1csc2nc(O)c(C(=O)NC3CCCCC3C)c(=O)n12 (configuration not stated)
75	i	0.65	Cc1ccc(OCC(=O)N[C@@H](C)c2nnc3ccccn23)cc1C

# Following part:
No.	KCNQ2 inh	KCNQ2 inh baseline	SMILES
76	i	0.37	Cc1nc(CC(=O)N2CCN(c3cccc(C)c3C)CC2)cs1
77	i	-1.1	O=C(CSc1nnc(Cc2cccs2)n1C1CCCCC1)N1CCN(C(=O)c2ccco2)CC1
78	i	-1.7	C=CCOC(=O)C1=C(C)NC(=O)NC1c1ccc(OC(=O)c2ccco2)c(OC)c1 (configuration not stated)
79	i	2.6	c1ccc(OCc2nnc(-c3ccccc3)o2)cc1
80	i	0.91	CCOc1ccc(NC(=O)N(CCC(C)C)C(C)c2ccco2)cc1 (configuration not stated)
81	i	-0.99	CCN(CC(=O)Nc1ccccc1OC)C(=O)c1ccc(N(C)S(=O)(=O)c2ccc(C)cc2)cc1
82	i	1.6	Cc1cc2[nH]c(=O)c(=O)[nH]c2cc1S(=O)(=O)Nc1cccc(F)c1
83	i	0.04	CSc1nnc(-c2ccccc2)n1C
84	i	0.97	N#CCC(=O)N/N=C/c1cc(Br)ccc1OCc1cccc2ccccc12
85	i	-1.7	Cn1nc([N+](=O)[O-])nc1Sc1nnnn1-c1cccc(C(=O)O)c1
86	i	0.15	CCCOc1ccc(-c2nc(OC)c3ccccc3n2)cc1
87	i	1.7	COc1ccccc1NC(=O)C1=C(C)Nc2nnnn2C1c1ccccn1 (configuration not stated)
88	i	0.12	CNC(=S)N1CCC(NC(=O)c2ccco2)CC1
89	i	0.42	Cc1cc(C)n(CCNC(=O)CC2C(=O)NCCN2Cc2ccc(C)o2)n1 (configuration not stated)
90	i	-0.77	Cc1ccc(C(=O)N2CCN(Cc3ccc4c(c3)OCO4)CC2)cc1[N+](=O)[O-]
91	i	-0.81	O=S(=O)(O)c1cccc2c(N=Nc3ccc(O)c4ncccc34)cccc12
92	i	0.7	CCn1nc(C(=O)OCC(=O)c2cc(C)n(Cc3cccs3)c2C)c2ccccc2c1=O
93	i	0.44	C=CCOc1c2ccc(C(=O)NCCc3ccc(C)cc3)cc2nn1C
94	i	0.09	O=C(Cc1ccc(Br)cc1)NC1CCCc2ccccc21 (configuration not stated)
95	i	0.09	COC(=O)c1sc(SC)c(S(=O)(=O)C(C)C)c1N/N=C(\C#N)S(=O)(=O)c1ccccn1
96	i	3.5	CCOC(=O)N1CCN(C(=O)c2ccc(C)c(S(=O)(=O)Nc3cccc(C)c3C)c2)CC1
97	i	-1.2	CCOc1ccc(N(CC(=O)N2CCOCC2)S(=O)(=O)c2ccc(F)cc2)cc1
98	i	-0.19	CC(C)Cc1nnc(NC(=O)CCNC(=O)c2ccco2)s1
99	i	0.4	COc1ccc2c(=O)c3c(=O)n(Cc4ccco4)c(-c4ccco4)nc3oc2c1
100	i	0.95	Cc1ccnc(NS(=O)(=O)c2ccc(NS(=O)(=O)c3ccccc3)cc2)n1
101	i	0.12	O=S(=O)(c1cccc2nsnc12)N1CCCC1
102	i	0.01	CC(=O)Nc1nc(-c2ccc(Cl)cc2)nc(C)c1C(C)=O
103	i	-0.47	CCOC(=O)c1cnc2ccc(C)cc2c1OCc1cc(F)cc(F)c1
104	i	-1.6	COc1ccccc1-c1cn(-c2ccccc2)c(=S)[nH]1
105	i	-0.74	CCOC(=O)c1cn(-c2ccccc2CO)c2c(F)c(F)c(F)cc2c1=O
106	i	-0.27	COc1cc2c(cc1OC)CN(C(=O)c1cccc([N+](=O)[O-])c1)CC2
107	i	-1.6	CCOc1ccc(C2Oc3nc(SC)nnc3-c3ccccc3N2C(C)=O)cc1OC (configuration not stated)
108	i	0.01	Nc1nc(Cl)cc(=O)n1Cc1ccc(Cl)cc1
109	i	-0.93	Cc1ccc(N2C(=O)CC2(C#N)c2ccc(OCc3ccccc3)cc2)cc1 (configuration not stated)
110	i	0.18	FC(F)(F)c1cccc(Cc2noc(CN3C[C@@H]4CCC[C@H]3C4)n2)c1
111	i	0.53	CC(C)(C)OC(=O)CN1C(=O)NC(Cc2c[nH]c3ccccc23)C1=O (configuration not stated)
112	i	2.7	O=C(c1ccco1)N1CCN(Cc2cccc([N+](=O)[O-])c2)CC1
113	i	1.4	C=CCNC(=O)C1CCN(S(=O)(=O)c2ccccc2)CC1
114	i	1.9	Nc1ccc2c(C(F)(F)F)cc(=O)oc2c1
115	i	-0.75	COc1ccc(CCNC(=O)C2CCC(=O)N(CCc3ccc(OC)cc3)C2)cc1 (configuration not stated)
116	i	0.98	Cc1nn(-c2ccccc2)c(C)c1/C=N/n1c(-c2ccccc2Br)n[nH]c1=S
117	i	-1.3	O=C(COC(=O)C1CCN(c2ccc(C(F)(F)F)cn2)CC1)c1ccc(F)cc1
118	i	0.05	COc1ccc(NC(=O)C2C3C=CC4(O3)C2C(=O)N(CCCN2CCCCC2)C4C(=O)NC2CCCC(C)C2C)cc1 (configuration not stated)
119	i	-0.01	Cc1cc(NC(=O)COC(=O)C2CCN(S(=O)(=O)c3ccc(Cl)cc3)CC2)no1
120	i	-0.91	NC(=O)CSc1nnc(-c2cccs2)n1-c1ccccc1
121	i	-0.83	COc1ccc(-c2csc3ncnc(N4CCN(C(=O)c5ccco5)CC4)c23)cc1
122	i	0.53	C=CCN(CC=C)S(=O)(=O)c1ncn[nH]1
123	i	-2.9	CSc1cccc(NC(=O)c2ccc(CN3CCc4ccccc4C3)cc2)c1

# Profiles, quoted from the list. Order of screens: KCNQ2 inh, KCNQ2 inh baseline
# Listed for `C=CCNC(=O)C1CCN(S(=O)(=O)c2ccccc2)CC1` = i, 1.4
# Listed for `COc1ccc(-c2csc3ncnc(N4CCN(C(=O)c5ccco5)CC4)c23)cc1` = i, -0.83
# Listed for `CCOC(=O)c1cnc2ccc(C)cc2c1OCc1cc(F)cc(F)c1` = i, -0.47
# Listed for `Cc1nn(-c2ccccc2)c(C)c1/C=N/n1c(-c2ccccc2Br)n[nH]c1=S` = i, 0.98

# Some of the compounds tested; count on the stated rates, not on these rows.
